RecA splice inh = blocks M. tuberculosis RecA intein splicing; P9WHJ3; cell-free RecA intein splicing, fluorescence; inhibition, %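 (about 9 µM by stock and volumes)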; 290,000 compounds, 0.75% hits; AID 2221; in the data active = inhibition above about 30%; inconclusive = no clear call, values can overlap the other calls;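 note: 0% = vehicle wells and 100% = reference inhibitor control wells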
Target sequence (P9WHJ3 whole entry, looked up, canonical isoform): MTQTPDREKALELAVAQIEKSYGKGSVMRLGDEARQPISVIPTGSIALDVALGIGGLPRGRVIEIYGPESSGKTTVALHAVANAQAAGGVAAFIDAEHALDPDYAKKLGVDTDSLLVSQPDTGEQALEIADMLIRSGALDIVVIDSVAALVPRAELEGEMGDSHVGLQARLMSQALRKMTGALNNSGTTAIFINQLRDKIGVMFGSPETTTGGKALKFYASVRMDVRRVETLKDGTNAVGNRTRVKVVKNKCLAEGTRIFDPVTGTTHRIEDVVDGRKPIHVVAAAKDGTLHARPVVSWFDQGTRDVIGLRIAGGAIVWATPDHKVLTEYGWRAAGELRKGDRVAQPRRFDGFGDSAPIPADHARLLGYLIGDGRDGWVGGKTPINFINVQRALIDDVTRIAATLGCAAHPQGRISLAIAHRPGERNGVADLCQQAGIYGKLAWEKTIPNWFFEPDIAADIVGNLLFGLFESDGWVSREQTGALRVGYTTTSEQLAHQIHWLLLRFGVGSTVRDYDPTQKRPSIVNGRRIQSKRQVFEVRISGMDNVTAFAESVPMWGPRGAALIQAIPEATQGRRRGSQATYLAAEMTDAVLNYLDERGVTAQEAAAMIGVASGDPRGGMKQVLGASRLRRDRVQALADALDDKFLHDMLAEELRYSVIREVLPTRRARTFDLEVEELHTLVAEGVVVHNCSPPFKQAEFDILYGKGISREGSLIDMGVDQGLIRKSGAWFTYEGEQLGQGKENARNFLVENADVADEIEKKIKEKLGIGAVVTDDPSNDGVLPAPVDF
Mtb betalactam = beta-lactam sensitization of Mtb H37Rv. M. tuberculosis H37Rv growth with meropenem, percent inhibition; hits of this screen are not shown here. inhibition, % at 25 µM. 330,000 compounds, 0.27% hits. AID 434955;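 active = about 74% or more and at least 40 points above the plate without the antibiotic, then above 30% in a dose series; inconclusive = first-round hits that could not be retested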;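 note: growth measured after seven days incubation then overnight dye step; 0% = bacteria only wells and 100% = bacteria with antibiotic; twin plates without the antibiotic show which effects depend on it; some results filed as inactive read as strong as hits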
YopH inh = YopH (Yersinia) phosphatase inhibition | AID 898 | fluorescence Ex485/Em525 | inhibition, %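 (about 10 µM by stock and volumes)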 | 140,000 compounds, 0.16% hits;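 active = inhibition of 50% or more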;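 note: controls were vehicle for no effect and minimum signal wells for full effect; inactives centre near -20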
Mtb growth = M. tuberculosis H37Rv growth inhibitors, H37Rv strain (AID 1626). inhibition, % at 10 µM, or IC50 in µM where a hit was titrated. M. tuberculosis H37Rv growth inhibition; higher % means a stronger effect. 220,000 compounds, 0.95% hits;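 active = confirmed in a dose series; inconclusive = inhibition above 80% but not taken into the dose series; inactive = below 80% or under 30% at every dose of the series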;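 note: bacteria incubated seven days before Alamar blue readout; 0% = bacteria only wells and 100% = bacteria with antibiotic wells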
Arbovirus inh = blocks arbovirus infection; arbovirus infection cell-based antiviral screen; inhibition, % at 10 µM; 200,000 compounds, 0.37% hits; AID 1251;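 active = inhibition from about 30%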;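 note: bluetongue infection of BSR cells; cell survival read as ATP light after 72 h; 0% = infected wells without compound and 100% = uninfected wells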
Arbovirus inh repeat = second read-out of Arbovirus inh, no call of its own (marks repeat the call); inhibition, %; measured here: 10K subset replicate screen; many hits read low in the repeat;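 first of two repeat runs on a subset; 0% = infected and 100% = uninfected wells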
* = called active by the depositor; u = inconclusive; x = not tested or not shown. Only part of the results is shown, so the mix of outcomes need not match the whole.

SMILES	RecA splice inh	Mtb betalactam	YopH inh	Mtb growth	Arbovirus inh	others
Cc1cccc(C)c1OCC(=O)N(Cc1cccs1)C1CCS(=O)(=O)C1 (configuration not stated)	1.1	-3.3	x	13.3%	x
COc1ccc(/C=N\N2CCN(Cc3ccccc3Cl)CC2)cc1	-0.8	-0.6	x	x	x
O=C(Nc1nc2c(Cl)cccc2s1)c1ccc(Br)o1	1.3	27.7	-13.9	3.0%	-3.3
CN(C)S(=O)(=O)c1ccc(C(=O)Nc2ccc(OCC(=O)N3CCOCC3)cc2)cc1	-0.1	-11.5	-27.6	-8.4%	11.9	Arbovirus inh repeat=5.6
Cc1csc(SCC(=O)Nc2c(C)n(C)n(-c3ccccc3)c2=O)n1	-2.8	-9.8	34.2	4.6%	8.2
C=CCNc1oc(COc2ccc(C)cc2)nc1C#N	0.5	5.4	-10.7	19.7%	-2.2	Arbovirus inh repeat=0.0
CS(=O)(=O)N(CC(=O)Nc1cccc([N+](=O)[O-])c1)c1ccccc1F	1.6	-5.8	x	4.8%	10.7
COc1cccc(C(=O)N2CCN(c3ccccn3)CC2)c1	-3.7	1.1	x	x	x
Cc1cc(S(=O)(=O)NC(C)C)ccc1OCC(=O)N1CCN(Cc2ccc3c(c2)OCO3)CC1	-2.1	8.6	-16.5	-4.7%	0.2
CC(C)c1ccc(Nc2ccc(C(=O)O)cc2[N+](=O)[O-])cc1	0.6	2.8	x	x	x
O=c1c2c(nc3nc(SCc4ccccc4)[nH]n13)CCC2	x	-14.1	-44.3	-4.4%	9.8
Cc1ccc(-c2cc(C(=O)NCc3ccccn3)c3ccccc3n2)cc1	-1.6	-3.8	-28.6	9.5%	2.9
Brc1ccccc1-c1nnc(COc2ncnc3c2cnn3-c2ccccc2)o1	-7.1	-9.2	-45.2	11.2%	-13.1
Cc1cnc(NC(=O)C2CC(=O)N(c3cccc(Cl)c3)C2)s1 (configuration not stated)	-1.0	-2.7	x	x	x
Cc1c(C(=O)N2CCCCC2)c(S(=O)(=O)NCCc2ccc(S(N)(=O)=O)cc2)c(C)n1C	-0.2	0.4	x	x	x
O=C(Cn1nc2sc3ccccc3n2c(=O)c1=O)c1ccc(Cl)cc1	-1.1	1.7	x	-15.8%	x
CSc1nc2cc(C)nn2c(-c2ccc(C(C)(C)C)cc2)c1C#N	-2.3	-5.4	x	-6.8%	x
O=C(CSCc1cnn(-c2ccccc2)c1-n1cccc1)NCc1cccs1	6.8	-8.9	6.3	-6.5%	-2.0
COc1cc(/C=N/NC(=O)CCc2n[nH]c(=O)[nH]c2=O)cc(OC)c1OC	-0.4	0.4	-11.5	-3.9%	-7.1
O=C1N(c2ccc3c(c2)OCCO3)C(c2ccccc2)C1(F)F (configuration not stated)	2.2	98.6	x	2.57µM*	3.9
Cc1ccccc1NC(=O)CNC(=O)c1ccc(C(F)(F)F)cc1	-6.1	1.2	-4.5	-2.7%	8.0
O=C(CSc1nnc(-c2cc(-c3cccs3)nc3ccccc23)o1)NC1CCCCC1	-12.0	0.1	-10.7	-3.2%	-16.4
CC1=C(C(=O)Nc2ccc(C)cc2C)C(c2cccs2)NC(=S)N1 (configuration not stated)	0.8	-0.8	-35.2	-7.4%	1.2
C=CCn1c(=O)/c(=C/c2ccc(Cl)cc2)s/c1=C(/C#N)c1nnc2n1CCCCC2	-4.4	97.0	-15.3	-0.7%	1.2
COC(C[C@@H]1O[C@@H]1C(=O)[C@@H](C)OCc1ccccc1)OC	-0.5	-3.7	x	-4.3%	x
Next section
SMILES	RecA splice inh	Mtb betalactam	YopH inh	Mtb growth	Arbovirus inh	others
O=C(Nc1ccc(Cl)cn1)c1ccc(COc2ccccc2Br)o1	8.0	6.7	x	-7.2%	-33.2
CCOC(=O)C1=c2/c(=C/c3ccncc3)c(N)c(C(=O)OC)n2C(=O)C(c2ccncc2)S1 (configuration not stated)	-2.0	4.2	x	3.8%	5.8
Cc1cnc(C(=O)OCC(=O)C23CC4CC(CC(C4)C2)C3)cn1	-0.8	-10.7	x	x	x
CCn1nnc(NC(=O)C(C)(c2ccccc2)c2ccccc2)n1	0.8	-8.7	x	0.3%	-7.8
CCCCCCCNc1nc(Cl)nc(NCCO)n1	-1.0	9.3	x	5.5%	6.3
CC1CC(C)CN(CC(=O)Nc2ccc(S(N)(=O)=O)cc2)C1 (configuration not stated)	-4.6	18.1	16.1	3.9%	3.2
CCc1sc(NC(=O)CCC(=O)O)nc1-c1cc2ccccc2oc1=O	-3.2	4.8	x	5.6%	2.6
COc1ccc(-c2nc(-c3ccc(NC(=O)c4ccc(Br)o4)cc3)no2)cc1OC	0.8	-9.9	-52.5	3.9%	3.7
Cc1ccc(S(=O)(=O)N2CCOCC2)cc1NC(=O)COC(=O)Cn1c(C)csc1=O	0.0	-5.7	x	x	x
CCOC(=O)c1cnc(SCC(=O)OCC(=O)N(CC)C2CCS(=O)(=O)C2)nc1N (configuration not stated)	-0.2	-2.9	x	x	x
Cc1c(C(=O)O)sc2nc(-c3cccs3)cc(C(F)(F)F)c12	3.1	-4.2	x	x	x
Cc1ccc[n+](CC(=O)c2ccc(Br)cc2)c1	2.8	-2.5	x	x	x
CCc1ccc(-c2csc3ncn(CC(=O)N4CCOCC4)c(=O)c23)cc1	-1.7	0.2	-20.9	-4.9%	1.8
Cc1cc(NS(=O)(=O)c2ccc(NC(=O)C(C)N3C(=O)c4ccccc4C3=O)cc2)nc(C)n1 (configuration not stated)	-6.4	-2.3	-16.2	-14.2%	10.9
Cc1ccc(C(=O)N(CC(=O)NC2CCCC2)c2ccc3c(c2)OCCO3)s1	1.1	-4.0	x	13.2%	23.5
CCN(CC)S(=O)(=O)c1cccc(NC(=O)COC(=O)C2COc3ccccc3O2)c1 (configuration not stated)	1.5	7.7	-27.2	1.9%	4.7
O=C(Nc1cnn(Cc2ccc(F)cc2)c1)c1noc2c1CCCC2	5.0	3.4	x	-2.1%	-30.1
S=C1NCN(Cc2cccnc2)CN1c1cccc2ccccc12	0.6	4.0	x	-3.2%	x
COCCCNC(=O)CCn1c(=O)c2ccccc2n(CC(=O)Nc2ccc(C)cc2C)c1=O	0.8	-7.5	-14.6	-0.6%	-2.6
CCCC1=C(C(=O)OCC)C(c2ccc(O)cc2)n2ncnc2N1 (configuration not stated)	0.5	-6.8	-12.9	2.6%	-2.0
CC(=O)c1ccc(NC(=O)CCNS(=O)(=O)c2ccccc2F)cc1	0.7	-1.7	x	x	x
COc1ccc([N+](=O)[O-])cc1NC(=O)C(C)OC(=O)C1CC(=O)N(Cc2ccco2)C1 (configuration not stated)	0.8	-6.8	x	x	x
Cc1ccc(C)c(N2CCN(C(=O)c3cccn4c(=O)c5sccc5nc34)CC2)c1	7.3	-1.6	x	6.6%	-10.7
O=C(O)CCC(=O)Nc1ccc2c(c1)oc1ccccc12	0.8	3.8	-11.0	-5.9%	6.4
CC1(Cc2cn(CCC#N)c3ccccc23)OCCO1	0.6	-4.0	-32.1	-8.8%	1.8
Next section:
SMILES	RecA splice inh	Mtb betalactam	YopH inh	Mtb growth	Arbovirus inh	others
COc1ccc(C2=NO[C@@H]3C(=O)N(Cc4ccccc4)C(=O)[C@H]23)cc1OC	-0.5	-4.3	-20.6	-1.4%	1.9
CCn1cc(/C=C/C(=O)Nc2c(C)nn(Cc3ccccc3C)c2C)cn1	-4.9	2.2	-37.2	0.7%	5.6
Cc1nc(-c2cccnc2)sc1C(N)=O	0.9	-0.5	-43.6	x	0.1
CCOC(=O)C1CCCCN1Cc1ccc(F)c(Br)c1 (configuration not stated)	6.3	u	-40.2	-2.5%	9.0
O=C(CSCc1c(Cl)cccc1Cl)Nc1cccnc1	16.2	3.0	x	0.0%	-4.7
CCCCCNc1nc(-c2ccccc2)cs1	3.2	-3.4	9.7	13.6%	17.7
CCCN(CCC)S(=O)(=O)c1ccc(C(=O)NCc2n[nH]c(=S)n2-c2ccc(Cl)c(Cl)c2)cc1	x	-1.8	x	0.2%	-0.1
Cc1ccc(C2CC(c3cccs3)=NN2C(=O)CCl)cc1 (configuration not stated)	82.1*	99.6	x	x	x
COc1ccc(N=c2oc3c(OC)cccc3cc2C(=O)NCc2ccco2)cc1OC	x	2.5	-23.9	7.9%	-11.3
C[C@@H]1CN(c2nc3nonc3nc2N2CCSCC2)C[C@H](C)O1	-0.1	-3.2	x	1.9%	4.4
c1ccc(-n2nnnc2SCc2cn3ccccc3n2)cc1	-0.3	4.1	-26.5	-11.6%	-0.8
CC1CCCCC1NC(=O)c1cccc(NC2=NC3CS(=O)(=O)CC3S2)c1 (configuration not stated)	-1.8	1.7	x	x	x
Cc1[nH]c2ccccc2c1C(=O)C(=O)N1CC2CC(C1)c1cccc(=O)n1C2 (configuration not stated)	-0.6	-8.9	x	2.0%	15.5
COc1ccc(C(=O)NCC2OCCc3ccccc32)c(O)c1 (configuration not stated)	1.8	-4.4	-10.7	1.7%	-2.3
C=C(C)CCC(C)N1CCC(n2nccc2NC(=O)CCCc2ccccc2)CC1 (configuration not stated)	-1.3	2.1	x	x	x
CCOc1ccc(-c2nnc3ccc(SCC(=O)Nc4nc5ccc(C)cc5s4)nn23)cc1	-4.7	7.2	-7.4	4.8%	-13.0
O=C(N/N=C/c1nn(-c2ccccc2)cc1-c1ccc(Cl)cc1)c1ccncc1	-2.7	99.0	x	u	-27.0
O=C(O)CCC(=O)NC1CCCCCCC1	-0.3	-13.6	-19.9	-3.7%	4.7
Cc1nc(S(=O)(=O)c2ccc(Cl)cc2)c(N(C)C)o1	0.4	-4.7	x	x	x
COc1cc(C)c(S(=O)(=O)N2CCOCC2)cc1C	-1.2	-11.3	6.1	-5.2%	4.1
CCn1cc(SCC(=O)NC2CCCC2)c2ccccc21	2.3	6.7	x	x	x
Cc1ccc2[nH]c(=S)n(-c3cccnc3)c(=O)c2c1	0.3	-7.0	x	4.3%	x
Cc1cc(C)n2c(SCCO)nnc2n1	1.8	-2.9	x	1.7%	x
CC(OC(=O)CCCOc1ccccc1)C(=O)NC(N)=O (configuration not stated)	0.1	-16.0	-18.2	-3.0%	4.9
CCC(c1nnnn1CCOC)N1CCN(c2cccc(C(F)(F)F)c2)CC1 (configuration not stated)	2.1	7.1	28.9	-0.7%	4.5

The final 5 records of the part before are carried over, then new ones follow.
SMILES	RecA splice inh	Mtb betalactam	YopH inh	Mtb growth	Arbovirus inh	others
CCn1cc(SCC(=O)NC2CCCC2)c2ccccc21	2.3	6.7	x	x	x
Cc1ccc2[nH]c(=S)n(-c3cccnc3)c(=O)c2c1	0.3	-7.0	x	4.3%	x
Cc1cc(C)n2c(SCCO)nnc2n1	1.8	-2.9	x	1.7%	x
CC(OC(=O)CCCOc1ccccc1)C(=O)NC(N)=O (configuration not stated)	0.1	-16.0	-18.2	-3.0%	4.9
CCC(c1nnnn1CCOC)N1CCN(c2cccc(C(F)(F)F)c2)CC1 (configuration not stated)	2.1	7.1	28.9	-0.7%	4.5
Cc1cc2c(cc(C(=O)NCCCN3CCOCC3)n2Cc2ccc(Cl)cc2)o1	-2.6	99.1	-18.6	-7.0%	-11.9
O=C(CSc1nnc(COc2ccccc2)o1)Nc1nccs1	1.4	5.0	-19.4	x	-1.1	Arbovirus inh repeat=-6.6
O=CN(/C=C1\Sc2ccccc2C1=O)Cc1ccccc1	-1.6	2.7	7.3	-9.7%	5.0
COc1cccc(CNC(=O)Cn2ncn3cccc3c2=O)c1OC	0.3	-5.9	x	x	x
COc1cccc(CN2CCNC(=O)C2CC(=O)N(C)CCc2ccccn2)c1 (configuration not stated)	0.1	-3.2	x	0.9%	-1.3
CCOc1ccccc1-c1nnc(SCC(=O)Nc2ccccc2)o1	2.1	-0.9	-32.6	3.3%	3.8
CCN(C(=O)COC(=O)CCS(=O)(=O)c1ccc(C)cc1)C1CCS(=O)(=O)C1 (configuration not stated)	1.9	-12.0	x	x	x
[O-][n+]1onc2c1C(N1CCOCC1)CCC2N1CCOCC1 (configuration not stated)	0.1	5.0	-39.1	-1.7%	2.1
CCOc1ccccc1C(=O)Nc1cccc2ccccc12	-1.4	98.6	x	x	x
CN(C)CCNC(=O)COc1ccc(C23CC4CC(CC(C4)C2)C3)cc1	0.4	5.5	x	11.3%	-28.5
C=CCOc1c(Br)cc(/C=N\n2nnnc2N)cc1OC	1.4	-4.1	0.2	10.4%	1.4
CC(C)(C)OC(=O)n1cc(/C=N/NC(=O)c2ccco2)c2ccccc21	-0.4	-13.3	x	x	x
CN(Cc1nc(-c2ccccn2)no1)S(=O)(=O)c1ccc(Br)cc1	-1.0	-9.2	-10.6	-5.3%	-6.0
COC(=O)c1ccc(CSc2nc3c(cnn3-c3ccccc3)c(=O)[nH]2)o1	x	4.1	-22.8	2.2%	14.1
C/C(=N\NC(=O)c1ccccc1)c1ccccc1F	-1.5	8.7	x	0.3%	4.0

Compound activity from PubChem.
